Source: PubChem BioAssay
Ecoli rRNA inh: selective bacterial rRNA inhibition in E. coli; E. coli WT GFP vs humanized-ribosome RFP mutants, fluorescence, 24 h; stronger effect = lower value; DMSO median 0, no signal -100; GFP signal change (wild-type ribosome), % (test concentration not listed); 350,000 compounds, 1.6% hits; AID 720706;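 active = significant combined selectivity score with lowered wild-type GFP, culture density cut under 30%, mutant RFP and density less affected; inactive = any of these conditions unmet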; also: one replicate is shown; some compounds called inactive have numbers as strong as hits
MLL AF4-AF9 inh: inhibitors of human MLL-AF4/AF9 interaction; P42568; AlphaScreen, biotin-AF4 peptide binding to FLAG-AF9; inhibition, % at 10 µM; 350,000 compounds, 0.47% hits;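 active = every replicate reaching a set inhibition limit, whatever the replicate mean, cut at about 25% in these data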;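 also: 0% = plate neutral control median and 100% = total signal loss; the record names both 10 and 1 µM as test concentration; the first replicate is given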
Target sequence (P42568 whole entry, looked up): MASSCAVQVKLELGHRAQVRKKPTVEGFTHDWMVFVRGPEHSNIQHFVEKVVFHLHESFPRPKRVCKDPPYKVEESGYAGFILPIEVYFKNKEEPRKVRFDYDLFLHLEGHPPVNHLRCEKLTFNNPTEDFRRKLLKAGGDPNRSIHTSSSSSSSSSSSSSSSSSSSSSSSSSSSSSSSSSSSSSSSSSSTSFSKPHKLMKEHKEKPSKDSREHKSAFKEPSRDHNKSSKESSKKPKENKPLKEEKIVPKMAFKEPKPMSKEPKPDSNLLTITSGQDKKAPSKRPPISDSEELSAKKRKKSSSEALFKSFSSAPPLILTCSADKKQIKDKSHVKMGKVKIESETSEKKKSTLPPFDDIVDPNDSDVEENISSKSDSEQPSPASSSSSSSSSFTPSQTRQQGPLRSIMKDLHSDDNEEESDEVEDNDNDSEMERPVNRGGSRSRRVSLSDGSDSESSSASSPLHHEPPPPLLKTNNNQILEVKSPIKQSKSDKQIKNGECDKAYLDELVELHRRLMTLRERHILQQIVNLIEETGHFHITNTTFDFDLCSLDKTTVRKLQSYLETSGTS
FGF22 binding: shifts melting point of recombinant human FGF22; AID 651658; 340,000 compounds, 1.5% hits; calls only at 9.99 µM; Q9HCT0; recombinant FGF22 thermal shift, SYPRO orange fluorescence; percent of sucrose octasulfate shift, DMSO zero;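 active = melting point raised past a set limit in the mean and every replicate; three in four hits are not shown here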
Target sequence (Q9HCT0 whole entry, looked up): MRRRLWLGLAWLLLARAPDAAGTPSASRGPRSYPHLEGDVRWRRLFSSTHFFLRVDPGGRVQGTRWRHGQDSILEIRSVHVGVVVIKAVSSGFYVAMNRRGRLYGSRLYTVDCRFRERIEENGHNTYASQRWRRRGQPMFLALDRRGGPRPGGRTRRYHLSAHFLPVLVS
Ecoli rRNA inh OD600: further read-out of Ecoli rRNA inh, marked with its call; OD600 change, %; measured here: OD600 growth;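 optical density of the mix in the first replicate; 0 = DMSO median and -100 = no signal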
Ecoli rRNA inh RFP: second read-out of Ecoli rRNA inh, no call of its own (marks repeat the call); RFP signal change, %; measured here: RFP humanized mutant strains;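 first replicate; 0 = DMSO median and -100 = no signal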
* hit, by the source's call; i = inactive. Not all compounds are listed; count on the stated rates, not on these rows.

A first look:
Values run as follows: Ecoli rRNA inh | Ecoli rRNA inh OD600 | Ecoli rRNA inh RFP | MLL AF4-AF9 inh | FGF22 binding
C[C@H](CO)N1C[C@H](C)[C@@H](CN(C)Cc2ccccn2)Oc2ncc(C#CC3(O)CCCC3)cc2C1=O
 : 5.9 | 8.0 | -0.6 | -1.9 | i
O=C(C[C@H]1C[C@H]2c3cc(NC(=O)NC4CCCC4)ccc3O[C@H]2[C@H](CO)O1)NC1CCCC1
 : -1.3 | -4.5 | -1.2 | -0.8 | i

The whole of this part (from the top)
Values run as follows: Ecoli rRNA inh | Ecoli rRNA inh OD600 | Ecoli rRNA inh RFP | MLL AF4-AF9 inh | FGF22 binding
C[C@H](CO)N1C[C@H](C)[C@@H](CN(C)Cc2ccccn2)Oc2ncc(C#CC3(O)CCCC3)cc2C1=O
 : 5.9 | 8.0 | -0.6 | -1.9 | i
O=C(C[C@H]1C[C@H]2c3cc(NC(=O)NC4CCCC4)ccc3O[C@H]2[C@H](CO)O1)NC1CCCC1
 : -1.3 | -4.5 | -1.2 | -0.8 | i
CCCN1C[C@@H](C)[C@H](OC)CN(C)C(=O)c2ccc(NC(=O)Nc3c(C)noc3C)cc2OC[C@@H]1C
 : -0.2 | -1.8 | -2.2 | -1.4 | i
CC(C)NC(=O)N1CCCCN2[C@H](CO)[C@H](c3ccc(C#Cc4ccccc4F)cc3)[C@@H]2C1
 : -55.9 | -72.6 | -7.9 | -7.3 | i
CC1CC2C(C(O)CC3(C)C2CCC3(O)C(=O)CO)C2(C)C=CC(=O)C=C12 (stereo not given)
 : 2.7 | 9.5 | 1.3 | -2.0 | i
C[C@@H]1CN([C@@H](C)CO)C(=O)c2cc(NC(=O)Nc3cccc4ccccc34)ccc2O[C@@H]1CN(C)CC1CCCCC1
 : -9.0 | -34.1 | 15.2 | 11.8 | i
C[C@H](CO)N1C[C@H](C)[C@H](CN(C)CC2CCCCC2)Oc2ccc(NC(=O)CCCCCC(=O)Nc3ccccc3N)cc2CC1=O
 : -0.2 | -6.8 | 3.8 | 1.4 | i
C[C@@H]1CCCCO[C@H](CN(C)C(=O)CCC(F)(F)F)[C@@H](C)CN([C@@H](C)CO)C(=O)c2cc(NS(C)(=O)=O)ccc2O1
 : -1.0 | 8.6 | -2.9 | -10.4 | i
CCN(CC)CCNC(=O)c1ccc(NC(=O)Cc2ccc(OC)c(S(=O)(=O)N3CCOCC3)c2)cc1
 : 16.1 | 14.2 | -3.4 | 7.3 | i
Cc1cnc(NC(=O)c2ccc3c(c2)OCCO3)s1
 : -2.9 | 6.2 | -3.5 | -1.4 | i
CCCNC(=O)C[C@@H]1CC[C@H]2[C@@H](COC[C@@H](O)CN2C(=O)Nc2c(C)noc2C)O1
 : 1.3 | 3.4 | -5.4 | -1.5 | i
COc1ccc2c3c([nH]c2c1)[C@H](CO)N(C(=O)c1ccc(F)cc1)CC31CN(C(=O)Nc2cccc(F)c2)C1
 : 4.2 | 4.6 | -0.5 | 0.5 | i
CC(C)NC(=O)NCC[C@@H]1CC[C@H](NC(=O)CCN2CCCCC2)[C@@H](CO)O1
 : 2.9 | 9.1 | -1.0 | 1.4 | i
O=S(=O)(N[C@@H]1CC[C@@H](CCn2cc(C3CC3)nn2)O[C@@H]1CO)c1ccc(F)cc1
 : 0.4 | 0.3 | -1.6 | -2.5 | i
CC(C)N1CCC(C)(C(=O)Nc2cc(-c3ccccc3)nn2C)C1 (stereo not given)
 : 12.4 | 15.5 | -2.9 | -0.2 | i
CC(C)NC(=O)Nc1ccc2c(c1)C(=O)N([C@H](C)CO)C[C@@H](C)[C@H](CN(C)C(=O)Nc1ccc(F)cc1)O2
 : 1.1 | 3.2 | 0.5 | -3.0 | i
COc1ccc2c3c([nH]c2c1)[C@@H](CO)N(Cc1ccccn1)CC31CCN(C(=O)c2ccccn2)CC1
 : 2.8 | 8.4 | 1.2 | -1.8 | i
CC1CC=CCC1(CO)CO (stereo not given)
 : 6.5 | 8.7 | 1.7 | -0.3 | i
Cc1ccccc1S(=O)(=O)N1CCCCN2[C@H](CO)[C@H](c3ccc(C#CCN(C)C)cc3)[C@@H]2C1
 : -1.1 | 1.9 | 5.4 | 3.5 | i
CO[C@@H]1CN(C)C(=O)c2ccc(NC(C)=O)cc2OC[C@H](C)N(CC2CC2)C[C@H]1C
 : 3.2 | 1.8 | 2.4 | -1.9 | i
COc1cccc(S(=O)(=O)N2C[C@@H](O)COC[C@H]3O[C@@H](CC(=O)N4CCCCC4)CC[C@@H]32)c1
 : 1.0 | 8.6 | -3.6 | 0.2 | i
CC(C)NC(=O)Nc1ccc2c(c1)C(=O)N([C@H](C)CO)C[C@@H](C)[C@H](CN(C)S(=O)(=O)c1ccccc1)OCCCC[C@H](C)O2
 : -3.2 | -6.5 | -2.4 | 1.2 | i
Cc1noc(C)c1S(=O)(=O)Nc1ccc2c(c1)C(=O)N([C@H](C)CO)C[C@@H](C)[C@H](CN(C)S(=O)(=O)c1cn(C)cn1)OCCCC[C@@H](C)O2
 : 0.6 | 5.1 | -1.1 | -0.9 | i
CCCN1C[C@@H](C)[C@H](OC)CN(C)C(=O)c2cc(NS(=O)(=O)CC)ccc2OC[C@@H]1C
 : -1.2 | -0.6 | -0.3 | -0.2 | i
O=C(c1ccccc1F)N1C[C@@H]2[C@H](c3ccccc31)[C@H](CO)N2Cc1ccc2c(c1)OCO2
 : -5.2 | -22.2 | -1.1 | 1.3 | i
Cc1ccc(S(=O)(=O)N2[C@H](CC(=O)Oc3ccccc3)OC[C@@H]2C(C)C)cc1
 : -7.5 | -3.3 | -0.7 | -2.8 | i
O=C(NCc1cccnc1)c1cc(C2CCCCN2C(=O)CCCc2ccccc2)on1 (stereo not given)
 : -1.7 | -6.3 | 3.6 | -6.5 | i
N#C[C@@H]1N[C@H](CO)[C@@H]1c1ccc(/C=C/c2ccccc2)cc1
 : 1.1 | 8.1 | -0.7 | 11.1 | i
C=CCn1c(=O)n(C)c2c(=O)n(C)c(=O)n(C)c21
 : 22.1 | 26.5 | 3.5 | -4.7 | i
O=C(Nc1ccnn1C1CCNCC1)c1ccc2c(c1)OCO2
 : 9.9 | 15.3 | -0.8 | 9.6 | i
C[C@H](NC(=O)C1CCN(S(=O)(=O)c2ccccc2)CC1)C(=O)NCc1cccnc1
 : 7.7 | 18.6 | -2.5 | -4.9 | i
O=C(C[C@@H]1CC[C@H]2[C@@H](COC[C@@H](O)CN2Cc2ccccc2)O1)N[C@H]1CCN(Cc2ccccc2)C1
 : -3.0 | -9.5 | 3.0 | 5.9 | i
CN1C(=O)c2cc(NS(=O)(=O)c3ccccc3Cl)ccc2OC[C@@H]2O[C@@H](CC(=O)O)CC[C@@H]21
 : -1.4 | -3.2 | -2.1 | -0.3 | i
COCC(=O)Nc1ccc2c(c1)C(=O)N(C)C[C@@H](OC)[C@H](C)CN(Cc1ccccc1C(=O)O)[C@H](C)CO2
 : 2.9 | 1.1 | -1.6 | -4.7 | i
C[C@H](CO)N1C[C@H](C)[C@@H](CN(C)Cc2ccncc2)Oc2ccc(NC(=O)Cc3cn(C)c4ccccc34)cc2C1=O
 : -0.7 | 14.7 | 2.3 | 5.2 | i
COc1ccccc1CN1C[C@@H](C)[C@H](OC)CN(C)C(=O)c2ccc(NC(C)=O)cc2OC[C@@H]1C
 : -0.9 | -7.2 | 0.4 | 4.0 | i
C[C@@H]1CN([C@H](C)CO)C(=O)c2cc(C#CCN(C)C)cnc2O[C@@H]1CN(C)S(C)(=O)=O
 : 7.2 | 17.1 | -0.7 | -0.7 | i
OC[C@@H]1[C@@H](c2ccc(C#CC3(O)CCCC3)cc2)[C@@H]2CN(Cc3ccccc3F)CCCCN12
 : 1.1 | 8.2 | 4.5 | -2.3 | i
CNC[C@@H]1Oc2ccc(NC(=O)Nc3ccc(OC)cc3)cc2CC(=O)N([C@H](C)CO)C[C@H]1C
 : 4.4 | 12.6 | -1.1 | 2.2 | i
CN(C)C(=O)C[C@H]1C[C@@H]2c3cc(NC(=O)CC4CC4)ccc3O[C@@H]2[C@H](CO)O1
 : 6.4 | 12.1 | -1.0 | -7.4 | i
CC(C)[C@@H]1O[C@H](CCc2ccccc2)CC2=C1C(=O)OC(C)(C)O2
 : -2.3 | -1.4 | -1.1 | -4.1 | i
CCN(C[C@@H]1[C@@H](c2ccccc2)[C@@H](CO)N1C(C)=O)C(=O)NC(C)C
 : 1.2 | 0.6 | -1.9 | -2.5 | i
C/C=C/c1ccc2c(c1)O[C@@H](CN(C)C(=O)c1ccc3c(c1)OCO3)[C@@H](C)CN([C@H](C)CO)S2(=O)=O
 : -7.7 | -10.8 | 0.5 | 2.1 | i
O=C1CCC(C(=O)OCC(=O)N2N=C3/C(=C\c4ccccc4)CCCC3C2c2ccccc2)N1 (stereo not given)
 : -30.8 | -67.1 | 3.3 | 13.0 | i
CN(C)CC(=O)Nc1ccc2c(c1)[C@@H]1C[C@@H](CC(=O)NCc3cccc(F)c3)O[C@H](CO)[C@@H]1O2
 : 4.8 | 8.4 | 0.9 | -0.1 | i
COc1cccc(NC(=O)N[C@@H]2C=C[C@H](CC(=O)Nc3ccc(-c4ccccc4)cc3)O[C@@H]2CO)c1
 : -56.7 | -76.4 | -13.8 | -16.5 | i
COc1ccccc1CNC(=O)C[C@@H]1CC[C@@H]2[C@H](COC[C@@H](O)CN2C(=O)Nc2ccc(C(F)(F)F)cc2)O1
 : -57.1 | -76.2 | -16.3 | 1.0 | i
COCC(=O)Nc1ccc2c(c1)C(=O)N(C)[C@H]1CC[C@H](CC(=O)Nc3ccccc3)O[C@@H]1CO2
 : 1.3 | -1.5 | 0.8 | -1.7 | i
C[C@H]1CN([C@@H](C)CO)S(=O)(=O)c2ccc(C#CC3CCCCC3)cc2O[C@H]1CN(C)C
 : 2.8 | -2.9 | 7.5 | 12.1 | i
COCCCNC(=O)C[C@H]1C[C@H](C(=O)N(C(C)C)C(C)C)[C@@]2(C)c3[nH]c4ccc(Cl)cc4c3CCN2C1=O
 : -10.1 | 3.5 | 11.7 | 0.3 | i
CC(=O)NCCc1ccc(C(=O)COC(=O)c2ccc(C)s2)cc1
 : -4.6 | -6.0 | 3.7 | -21.6 | i
COc1ccc(CN(C)C[C@@H]2Oc3ccc(NS(C)(=O)=O)cc3C(=O)N([C@@H](C)CO)C[C@H]2C)cc1
 : 1.1 | 2.9 | -0.8 | -2.1 | i
Cc1sc2ncnc(N3CCC(C(=O)NNC(=O)COc4ccc(Cl)cc4)CC3)c2c1C
 : -34.2 | -57.9 | 7.8 | 0.2 | i
Brc1ccc2nc(-c3ccccc3)c(Cc3ccccc3)n2c1
 : -29.8 | -56.9 | -7.8 | 4.8 | i
O=C(Cc1ccncc1)NCC[C@H]1CC[C@@H](NC(=O)C2CCC2)[C@H](CO)O1
 : 2.4 | 6.5 | 0.0 | -10.6 | i
O=C(N[C@@H]1CC[C@@H](CC(=O)N2CCCCC2)O[C@@H]1CO)c1ccccn1
 : 2.0 | -1.7 | 1.5 | -2.7 | i
CS(=O)(=O)c1cccc(-c2ccc3nncn3c2)c1
 : 7.1 | 12.9 | -0.2 | 0.2 | i
COc1ccccc1NC(=O)NNC(=O)c1ccncc1
 : 4.0 | 7.2 | -6.1 | -1.7 | i
COc1ccccc1S(=O)(=O)Nc1ccc2c(c1)OC[C@@H](C)NC[C@H](C)[C@@H](OC)CN(C)C2=O
 : 2.1 | 5.8 | -0.6 | -3.4 | i
Cc1ccc(S(=O)(=O)N[C@@H]2CC[C@H](CC(=O)N3CCN(c4ccccc4)CC3)O[C@H]2CO)cc1
 : -4.0 | -1.2 | -0.5 | 0.8 | i

Other structures
structure | Ecoli rRNA inh | Ecoli rRNA inh OD600 | Ecoli rRNA inh RFP | MLL AF4-AF9 inh | FGF22 binding
Cc1noc(C)c1NC(=O)N(C)C[C@H]1Oc2ncc(C#CC3CCCC3)cc2C(=O)N([C@@H](C)CO)C[C@H]1C | 3.0 | 4.0 | -0.9 | -1.3 | i
CCNC(=O)C[C@@H]1CC[C@@H]2[C@@H](COc3ccc(NC(=O)c4ccc(F)cc4)cc3C(=O)N2C)O1 | -2.0 | 2.1 | -3.4 | 0.8 | i
COc1ccc(C(O)c2ncc(-c3cccc(C(F)(F)F)c3)[nH]2)cc1F (stereo not given) | -0.2 | -35.8 | 0.8 | 10.0 | i
CC(C)c1ccc(O)c(=O)cc1 | 17.2 | 8.0 | 1.0 | -3.0 | i
COc1ccc(N2C[C@H](C)[C@@H](CC(=O)Nc3ccc(Br)cc3)C2=O)cc1 | -12.7 | -7.8 | -7.5 | 0.8 | i
COc1ccc(C(=O)N2CCCC2(C)C(=O)O)cc1C(F)(F)F (stereo not given) | 0.0 | 0.2 | -2.7 | -1.7 | i
O=C(N[C@@H]1CC[C@H](CCNC(=O)C2CC2)O[C@@H]1CO)c1ccccn1 | 0.4 | 2.7 | -0.6 | -0.7 | i
C[C@@H]1CN([C@@H](C)CO)C(=O)c2cc(NS(=O)(=O)c3ccc(Cl)cc3)ccc2O[C@H]1CN(C)S(=O)(=O)c1cccs1 | -4.4 | -13.6 | -0.7 | -1.5 | i
CC(=O)N(C)C[C@H]1Oc2ncc(-c3ccc(C)cc3)cc2C(=O)N([C@H](C)CO)C[C@@H]1C | 0.5 | 9.0 | -3.2 | -2.8 | i
CC[C@@H](C)[C@H](N)C(=O)NC[C@H]1O[C@@H](n2cnc3c(N)ncnc32)[C@H](O)[C@@H]1O | 6.7 | 10.1 | 2.2 | 0.2 | i
